GIV Gai3 FP – GIV-Galpha-i interaction inhibition; P08753; percent of control (FP), % (test concentration not listed); 210,000 tested, 0.42% active; Galpha-i3/FITC-GIV peptide fluorescence polarization, 90 min; stronger effect = lower value; scaled: aluminum fluoride 0%, vehicle 100%;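 active means replicate mean at 85% of control or lower, very high polarization wells dropped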;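 further: wells of about 15 µL received 100 nL stock; the first replicate is given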
Target sequence (P08753 whole entry, looked up): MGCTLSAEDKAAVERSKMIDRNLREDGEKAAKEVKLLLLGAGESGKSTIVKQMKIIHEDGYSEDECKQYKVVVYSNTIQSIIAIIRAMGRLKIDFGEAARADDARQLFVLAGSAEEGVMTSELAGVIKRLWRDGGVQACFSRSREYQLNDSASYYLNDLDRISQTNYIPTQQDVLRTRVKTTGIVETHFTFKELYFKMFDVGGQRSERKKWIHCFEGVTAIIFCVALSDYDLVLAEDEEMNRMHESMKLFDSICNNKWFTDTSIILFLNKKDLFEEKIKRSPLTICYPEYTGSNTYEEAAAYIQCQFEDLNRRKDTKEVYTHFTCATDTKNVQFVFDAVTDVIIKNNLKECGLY
Sa growth 42C – blocks Staphylococcus aureus growth; S. aureus RN4220 growth, OD600, 20 h, 42 °C; stronger effect = lower value; relative growth, % (test concentration not listed); 170,000 tested, 0.53% active;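 active means growth at 42 °C up to 50% and 20 or more points under that at 30 °C, or under 10% at both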;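 further: 300 nL library stock went into each well; scaled to the means of positive and negative controls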
HCMV UL50-53 inh – disrupts HCMV UL50-UL53 complex binding; HTRF UL50-UL53 interaction, normalized percent inhibition; inhibition, % (concentration not given with the values); 190,000 tested, 0.15% active; AID 1918969;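 active means both replicates at 50% or more, plus weaker picks with an unusually low signal ratio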;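 further: stock transfer was 100 nL into about 20 µL; 0% = negative control wells and 100% = wells with untagged competitor protein; inactives centre near -12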
Sa growth 42C second temp – recorded beside Sa growth 42C, whose call it bears; relative growth, %; measured here: growth at 30 °C;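 optical density after 20 h as mean of two plates; 100% = untreated growth and lower means inhibition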
Starred values were filed as active, the others as inactive; · = no result given; & = joins results of further samples.

A first look:
SMILES | GIV Gai3 FP | Sa growth 42C | Sa growth 42C second temp | HCMV UL50-53 inh
CC(C)CCn1c(SCC(=O)NC2CCCC2)nc2ccsc2c1=O | 101 | 69 | 85 | 3
O=C(c1ccc(Cl)cc1)N1CCN(c2ncnc3c2c(-c2ccccc2)cn3-c2ccccc2)CC1 | 106 | · | · | -6
CC(=O)OCCc1c(COC(C)=O)[nH]c(C(=O)OCc2ccccc2)c1C | 101 | 92 | 81 | -14
CCc1ccccc1NC(=O)NCc1ccc2c(c1)CCN2C(=O)c1ccccc1 | 98 | 101 | 99 | ·

This part in full, previewed entries included:
SMILES | GIV Gai3 FP | Sa growth 42C | Sa growth 42C second temp | HCMV UL50-53 inh
CC(C)CCn1c(SCC(=O)NC2CCCC2)nc2ccsc2c1=O | 101 | 69 | 85 | 3
O=C(c1ccc(Cl)cc1)N1CCN(c2ncnc3c2c(-c2ccccc2)cn3-c2ccccc2)CC1 | 106 | · | · | -6
CC(=O)OCCc1c(COC(C)=O)[nH]c(C(=O)OCc2ccccc2)c1C | 101 | 92 | 81 | -14
CCc1ccccc1NC(=O)NCc1ccc2c(c1)CCN2C(=O)c1ccccc1 | 98 | 101 | 99 | ·
C=C1/C(=N/O)CC2CC1C2(C)C (stereo not given) | 100 | 122 | 121 | -14
CC(C)(C)OC(=O)N1C(N)=C(C#N)C2(CCOCC2)c2[nH]c(C(F)(F)F)nc21 | · | 80 | 107 | 8
COc1ccc(-c2ccnc(SCc3ccc(Cl)cc3Cl)n2)cc1 | 100 | 90 | 91 | -39
CCCn1c(C)ccc(-c2noc(CCCC(=O)NC3CCCCC3)n2)c1=O | 106 | · | · | -33
CCC1Cn2c(C(=O)NCCC(C)C)cc3c(Cl)ccc(c32)O1 (stereo not given) | 105 | · | · | -12
O=C(NCc1ccccc1F)C(=O)NCC(c1ccco1)S(=O)(=O)c1cccs1 (stereo not given) | 95 | 122 | 85 | ·
Fc1cc2c(c(CSc3ccc(Cl)cc3)c1)OCOC2 | 104 | 72 | 105 | -11
CCOc1ccc(C(=O)CC(SCc2ccc(Cl)cc2)C(=O)O)cc1 (stereo not given) | 98 | 150 | 111 | -3
CCOC(=O)c1c(NC(=O)c2ccc(Cl)c([N+](=O)[O-])c2)sc(C(=O)Nc2cccc(Cl)c2C)c1C | 105 | · | · | 0
CCc1ccc(NCc2cc3ccc(OC)cc3n(CC(=O)Nc3ccc(C(C)C)cc3)c2=O)cc1 | 100 | 86 | 98 | ·
CCN=c1scc(C)n1/N=C/c1cccs1 | · | 112 | 80 | -55
O=C(O)c1cnc(N2CCC(Cc3ccccc3)CC2)c(NS(=O)(=O)c2ccc(F)c(F)c2)c1 | 104 | · | · | -30
Cc1nnc(NC(=O)COc2ccc(-c3nc(-c4ccccc4)no3)cc2)s1 | 107 | · | · | 3
O=C(CSCn1nnc2c(=O)[nH]c(Cc3ccc(F)cc3)nc21)Nc1ccccc1 | 102 | 89 | 84 | -14
COc1ccc(Oc2nc(N3CCCC3)c(Cl)c3c2N(C2CCCCC2)CCS3(=O)=O)cc1 | 105 | · | · | 9
O=C(NCCc1ccc(Cl)cc1)c1cnn(-c2ccc(Cl)cc2)c1C(F)(F)F | 102 | 80 | 90 | -24
CCC(C)c1ccc(NC(=O)COC(=O)/C=C/c2cccs2)cc1 (stereo not given) | · | 110 | 93 | -16
CCOc1ccc(N2C(=O)CN(Cc3ccc(C)cc3)[C@H]3CS(=O)(=O)C[C@H]32)cc1 | 100 | · | · | -18
CC(=O)Oc1ccc(-c2coc3cc(OC(C)=O)cc(OC(C)=O)c3c2=O)cc1 | 104 | 101 | 102 | 19
O=C1OCCC1OC(=O)C1(c2ccc(Cl)cc2)CCCC1 (stereo not given) | · | 173 | 105 | 6
CC12CCC(=O)N1C(C(=O)NCC13CC4CC(CC(C4)C1)C3)CS2 (stereo not given) | · | 99 | 97 | -6
SMILES | GIV Gai3 FP | Sa growth 42C | Sa growth 42C second temp | HCMV UL50-53 inh
CCOC(=O)C1CCN(C(=O)C(CC)c2ccccc2)CC1 (stereo not given) | 99 | 96 | 86 | -9
O=C(Cn1c(=O)n(Cc2ccc(F)cc2)c(=O)c2sc3ccccc3c21)Nc1ccc(F)cc1 | 104 | · | · | -12
COc1ccccc1NC1CC(=O)N(c2cccc(Cl)c2)C1=O (stereo not given) | · | 83 | 97 | -13
CN1CCN(CCCNC(=O)c2sc3ccccc3c2Cl)CC1 | 99 | 92 | 84 | -38
O=C(Nc1nc(-c2cccs2)cs1)C1CC(=O)N(c2ccc3c(c2)OCCO3)C1 (stereo not given) | · | 70 | 96 | -40
COc1ccc(-n2ccn(CC(=O)Nc3ccccc3C(F)(F)F)c(=O)c2=O)cc1OC | 99 | 104 | 89 | -37
CNCc1ccsc1 | · | 91 | 89 | -2
CC(C)=CCC/C(C)=C/C1OCCCO1 | 96 | 93 | 87 | -7
O=c1cc(CN2CCN(CCO)CC2)nc2nc(NCc3ccccc3Cl)[nH]n12 | 102 | · | · | -29
O=C(Cc1ccccc1)NCC1(c2ccccc2)CCCC1 | · | 143 | 99 | 0
Cc1c(Cl)cccc1NC(=O)Cn1nc(C)c2sc3ccccc3c2c1=O | 99 | 115 | 96 | -2
CC1(C)COC(c2ccccc2CO)=N1 | 105 | 100 | 101 | -7
Cc1ccccc1-c1nnc(CN2CCc3ccccc3C2)o1 | 99 | 88 | 87 | -21
CCOC(=O)c1c(S(=O)(=O)NCC(=O)Nc2ccc(C)c(Cl)c2)c(C)n(C)c1C | 104 | 79 | 83 | ·
Cc1nc2c([nH]1)C(c1ccc(C(C)C)cc1)C(C#N)=C(N)O2 (stereo not given) | · | 77 | 82 | -25
O=S(=O)(N/N=C/c1ccccc1)c1ccccc1 | 103 | 111 | 94 | -6
Cc1ccc(CNC(=O)c2c(Nc3c(C)cccc3C)sc(C(=O)c3ccccc3)c2N)cc1 | 100 | 81 | 91 | ·
COC(=O)c1sc(N2CCOCC2)c(C#N)c1-c1ccc(Cl)cc1 | 103 | 85 | 80 | -12
COc1ccc(OCC(O)CN2C(=O)c3ccccc3S2(=O)=O)cc1 (stereo not given) | 107 | 108 | 95 | ·
COc1ccc(OC)c(Nc2nc(Cl)nc(Nc3cc(OC)ccc3OC)n2)c1 | 105 | · | · | -3
COC(=O)c1ccc(-c2ccc(/C=C3\Sc4ccccc4C3=O)o2)cc1 | 130 | · | · | 6
Cc1cc(Cl)c2cccc(Br)c2n1 | 102 | 82 | 91 | -23
C#CCn1nc(-c2ccccc2)ccc1=O | 104 | 101 | 89 | -54
Cc1ccc(NC(=O)C2CCCN2S(=O)(=O)c2ccc3c(c2)C(C)(C)C(=O)N3C)cc1 (stereo not given) | 104 | 94 | 73 | ·
CCOC(=O)c1c(C)noc1-c1csc(COc2cccc(Cl)c2)n1 | 103 | 95 | 93 | -25

Next section, starting with the last two of the part before.
SMILES | GIV Gai3 FP | Sa growth 42C | Sa growth 42C second temp | HCMV UL50-53 inh
Cc1ccc(NC(=O)C2CCCN2S(=O)(=O)c2ccc3c(c2)C(C)(C)C(=O)N3C)cc1 (stereo not given) | 104 | 94 | 73 | ·
CCOC(=O)c1c(C)noc1-c1csc(COc2cccc(Cl)c2)n1 | 103 | 95 | 93 | -25
CCc1nn(CC(=O)N2CCCCC2)c(=O)c2cc3sc(C)cc3n12 | 104 | 108 | 90 | -34
CN(C(=O)CSc1nncn1-c1ccccc1)c1ccccc1 | · | 96 | 89 | -25
CC(=O)N1c2ccccc2NC(=O)C1(C)C | 101 | 97 | 85 | -11
Cc1ccc2nc(-c3cccnc3)oc2c1 | 106 | 101 | 56 | ·
CCOc1ccc(NS(=O)(=O)c2ccc3[nH]cc(C(=O)N(C)C4CCCCC4)c(=O)c3c2)cc1 | 109 | 132 | 90 | ·
N#Cc1c(NC(=O)CSc2nc3ccccc3[nH]2)sc2c1CCCC2 | 100 | · | · | 11
Cc1ccc(-c2nonc2NC(=O)c2ccco2)cc1C | 102 | 85 | 73 | -16
NC(=NC(=O)c1ccc(OCC(F)(F)F)nc1)c1ccccc1 | 101 | 92 | 109 | 10
CCOC(=O)c1nc2ccccc2nc1NCCN1CCc2ccccc2C1 | 99 | · | · | -38
Cc1csc(-c2coc3cc(O)cc(C)c3c2=O)n1 | 111 | 109 | 46 | -11
CCOc1ccccc1NC(=O)C1CCCN(S(=O)(=O)c2cn(C)cn2)C1 (stereo not given) | 98 | 83 | 90 | ·
CC1CCC(NC(=O)c2cc(S(=O)(=O)N3CCCCC3)c[nH]2)CC1 (stereo not given) | 113 | 97 | 102 | 12
COc1ccc(N(C)C(=O)C2CCC(CNS(=O)(=O)c3cccc4nsnc34)CC2)cc1 (stereo not given) | 107 | 95 | 85 | -69
COc1ccc(S(=O)(=O)N2CCc3cc4cccc(C)c4nc32)c(OC)c1 | 99 | · | · | -11
O=C(CCCSc1nc2scc(-c3cccs3)c2c(=O)n1-c1ccccc1)N1CCOCC1 | · | 102 | 97 | 7
CSc1c(C#N)c(-c2cc(C(C)(C)C)oc2C)nn1-c1ccccc1 | 105 | 99 | 88 | -30
CCc1ccc2c(CC(=O)Nc3cccc(-c4nnc5n4CCCCC5)c3)coc2c1 | · | 101 | 90 | 12
CCc1nnc(SCC(=O)Nc2ccc(Cl)cc2F)c2cc3occc3n12 | 111 | 75 | 60 | ·
CNC(=O)C1c2ccccc2Oc2ccccc21 | 103 | 117 | 88 | -4
O=C(O)CN1C(=O)C2(OCCCO2)c2ccccc21 | 108 | 99 | 94 | 2
CCOC(=O)c1cnc(SCC(=O)c2ccccc2)nc1N | 110 | 111 | 96 | 13
CCOc1ccccc1C1C(C(=O)OCCOC)=C(C)NC2=C1C(=O)CC(c1ccc(OC)c(OC)c1)C2 (stereo not given) | 103 | · | · | -6
Cc1cc2c(cc1S(=O)(=O)N1CCCC(C(=O)N3CCOCC3)C1)OC(C)C(=O)N2 (stereo not given) | 106 | · | · | 3
O=C(C1CCC1)N1CCc2cc(S(=O)(=O)N3CCN(c4ccccc4)CC3)ccc21 | 104 | 107 | 80 | -12
CC1CCC(NC(=O)C(Cc2c[nH]c3ccccc23)NC(=O)C2CCC(C)CC2)CC1 (stereo not given) | 106 | · | · | -11
SMILES | GIV Gai3 FP | Sa growth 42C | Sa growth 42C second temp | HCMV UL50-53 inh
OCCNc1nc2ccccc2s1 | 105 | 92 | 98 | -45
Cc1oc(-c2cccc(Cl)c2)nc1CN1CCC(C(=O)NCCCN2CCN(c3cccc(Cl)c3)CC2)CC1 | 106 | 112 | 80 | -23
CCOC(=O)c1sc2ccccc2c1S(=O)(=O)Nc1ccc(OC)c(Cl)c1 | 99 | 110 | 83 | ·
Cc1ccc(C2CC(=O)n3nc(-c4ccc(F)cc4)nc3S2)cc1 (stereo not given) | 103 | 121 | 84 | -24
Nc1sc2c(c1C(=O)NCc1ccco1)CCCC2 | 111 | 103 | 70 | -54
CCCCNC(=O)c1cc(=O)n(CC)c2c1c(=O)n(CC)c(=O)n2C | 104 | · | · | -4
CCCC(=O)NC(C)c1nc(-c2ccccc2)no1 (stereo not given) | 95 | · | · | 0
CCCN(CCC)CCNc1cc(C)nc2c(-c3ccccc3OC)c(C)nn12 | 101&102 | 88 | 95 | -23
COc1ccc(C)cc1NC(=O)N1CC(C)Sc2ccccc21 (stereo not given) | 101 | 83 | 102 | ·
CC(=O)Nc1cc(C(=O)NCCCN2CCC(C)CC2)ccc1S(=O)(=O)c1ccc(Cl)cc1 | 98 | 113 | 86 | ·
COC(=O)c1cc2oc(C)cc2n1CC(=O)N1CC(C)CC(C)C1 (stereo not given) | 110 | 97 | 87 | ·
CSc1ccccc1C(=O)Nc1ccc(S(=O)(=O)N2CCCC2)cc1 | · | 88 | 79 | -9
N#Cc1c(CSc2ccccc2N)cc(=O)n2c1sc1ccccc12 | · | 85 | 101 | -2
CC1=N/C(=C/c2cc3ccccc3nc2Sc2ccc(C)cc2)C(=O)O1 | 124 | 88 | 93 | ·
CC/C=N/NC(=O)c1cccc(F)c1 | · | 108 | 95 | 2
CN(C)N=C1c2cc(S(=O)(=O)N(C)C)ccc2-c2ccc(S(=O)(=O)N(C)C)cc21 | 97 | 100 | 93 | -52
CCOc1ccc(-c2nc(COc3cc(C(F)(F)F)c4c(C)nn(C)c4n3)c(C)o2)cc1 | 100 | · | · | 2
Nc1ccc(CCc2nc3ccccc3o2)cc1 | · | 101 | 79 | -1
Cc1cc(-c2noc(-c3snnc3C)n2)no1 | 99 | 103 | 86 | -100
CCC(C)n1nccc1NC(=O)COc1ccccc1 (stereo not given) | 106 | 84 | 89 | -10
CC(=O)N1CCCSc2ccc(S(=O)(=O)NCCN3CCOCC3)cc21 | 98 | · | · | 7
CCCC(=O)N1CCN(c2cc(N3CCOCC3)nc(C)n2)CC1 | 101 | · | · | -24
COc1ccc(Cl)cc1S(=O)(=O)N1CCN(c2nc3ccccc3n3cccc23)CC1 | 100 | · | · | -31
COc1ccc(-c2cc3nc(C)c(CCC(=O)NCCc4ccc(Cl)cc4)c(C)n3n2)c(OC)c1 | 102 | 102 | 80 | -6

5 entries out of the list, ordered by length of the SMILES, largest number first.
SMILES | GIV Gai3 FP | Sa growth 42C | Sa growth 42C second temp | HCMV UL50-53 inh
CCOc1ccc(-c2nc(COc3cc(C(F)(F)F)c4c(C)nn(C)c4n3)c(C)o2)cc1 | 100 | · | · | 2
COC(=O)c1cc2oc(C)cc2n1CC(=O)N1CC(C)CC(C)C1 (stereo not given) | 110 | 97 | 87 | ·
N#Cc1c(CSc2ccccc2N)cc(=O)n2c1sc1ccccc12 | · | 85 | 101 | -2
Nc1sc2c(c1C(=O)NCc1ccco1)CCCC2 | 111 | 103 | 70 | -54
OCCNc1nc2ccccc2s1 | 105 | 92 | 98 | -45

Compound activity: PubChem BioAssay, ICCB-Longwood Screening Facility, Harvard Medical School
